Source: PubChem (several laboratories)
RGS16-Gao – RGS16-Galphao interaction regulator (human). O15492+P09471. bead-based flow cytometry RGS16-Galphao binding, fluorescence; actives lie on both sides. binding response (% of control), % at 10 µM. 220,000 tested, 0.38% active;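 active = below 25% or above 175%, edge rows of some plates excepted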;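 note: Galphao activated by GDP with aluminum fluoride before binding; 100% = wells without compound and 0% = beads without RGS; some results beyond the cut were filed as inactive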
Target sequence (O15492 whole entry, looked up): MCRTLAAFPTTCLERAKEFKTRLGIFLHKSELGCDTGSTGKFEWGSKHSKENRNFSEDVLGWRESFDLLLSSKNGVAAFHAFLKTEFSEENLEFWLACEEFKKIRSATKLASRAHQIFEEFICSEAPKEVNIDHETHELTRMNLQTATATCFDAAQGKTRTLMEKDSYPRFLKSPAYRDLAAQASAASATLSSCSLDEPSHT
Target sequence (P09471 whole entry, looked up): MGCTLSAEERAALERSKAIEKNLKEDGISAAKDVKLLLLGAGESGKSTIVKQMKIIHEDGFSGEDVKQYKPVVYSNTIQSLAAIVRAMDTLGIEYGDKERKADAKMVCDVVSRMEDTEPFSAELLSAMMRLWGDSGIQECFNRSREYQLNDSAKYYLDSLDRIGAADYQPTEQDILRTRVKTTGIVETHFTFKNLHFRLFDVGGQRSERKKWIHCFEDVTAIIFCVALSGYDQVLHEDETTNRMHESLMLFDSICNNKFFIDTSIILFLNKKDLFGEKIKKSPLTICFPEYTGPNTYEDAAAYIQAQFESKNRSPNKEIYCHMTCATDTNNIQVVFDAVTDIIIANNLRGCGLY
INS promoter inh – TRM-6 insulin promoter activity inhibition | inhibition, % at 2 µM | 130,000 tested, 0.9% active | AID 1273 | TRM-6 cells (human fetal islet line), insulin promoter-eGFP reporter, imaging; reporter expression induced with tamoxifen;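 active = inhibition above the mean plus 3 SD, with well images judged a real hit on visual review, cut at about 60% in these data, passing the limit was not always enough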
HSV augment – HSV replication enhancement; HSV replication augmentation in cells, fold increase; 220,000 tested, 0.005% active; maximum fold increase;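 active = peak rise of 1.5-fold or more in the series; tested in PC3 cells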;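 note: first round at 10 µM; read as green reporter fluorescence; hits show the peak of a series up to 25 µM; 1 = signal of infected wells without compound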
PKD1 kinase inh – inhibitors of human PKD1 kinase | Q15139 | PKD1 kinase fluorescence polarization assay | inhibition, %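 (about 10 µM by stock and volumes)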 | 200,000 tested, 0.056% active | AID 797;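 active = inhibition of 50% or more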;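 note: controls were vehicle for no effect and a reference inhibitor for full effect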
GALR2 agonist – GALR2 (human) receptor agonism. O43603. activation, %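 (tested at 5 µM)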. GALR2-expressing cells, agonist activation read-out. 140,000 tested, 0.48% active;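 active = above mean plus 3 SD of all compounds, about 5% in these data, not always enough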;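 note: 0% = vehicle buffer wells and 100% = reference agonist at full effect; tested in CHO reporter cells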
Target sequence (O43603 whole entry, looked up): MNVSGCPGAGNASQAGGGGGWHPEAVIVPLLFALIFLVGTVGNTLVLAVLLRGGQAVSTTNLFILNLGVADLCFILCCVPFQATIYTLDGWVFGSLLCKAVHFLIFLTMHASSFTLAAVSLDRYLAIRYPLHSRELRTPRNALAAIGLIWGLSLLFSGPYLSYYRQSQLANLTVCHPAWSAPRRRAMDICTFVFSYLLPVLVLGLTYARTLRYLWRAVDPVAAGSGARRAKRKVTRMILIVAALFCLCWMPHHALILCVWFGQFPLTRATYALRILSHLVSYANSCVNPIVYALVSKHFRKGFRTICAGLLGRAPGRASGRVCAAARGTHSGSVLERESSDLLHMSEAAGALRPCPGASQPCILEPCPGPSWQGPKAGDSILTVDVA
INS promoter inh cell count – further read-out of INS promoter inh, marked with its call; normalized cell count, %; measured here: cell count, toxicity; reference of the scale not given here;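 cells exposed to compound for 48 h; stained nuclei by imaging scaled within each plate; lower means fewer cells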
HSV augment primary fold – second read-out of HSV augment, no call of its own (marks repeat the call); fold increase; compound at 10 µM; measured here: primary screen fold increase 10 uM; tested in PC3 cells;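 GFP signal in the first replicate; 1 = infected wells without compound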
An asterisk follows results filed as active; i = inactive; . = not tested or not shown.

SMILES	RGS16-Gao	INS promoter inh	INS promoter inh cell count	HSV augment	HSV augment primary fold	PKD1 kinase inh	GALR2 agonist
CC(SCc1cc(=O)n2c([nH]c3ccccc32)c1C#N)C(=O)O (stereo not given)	103	-55	91	i	1.2	-2	.
Cc1nc(S(=O)(=O)Cc2ccccc2Cl)nc2c1CCC2	101	73*	119*	i	0.98	5	.
CC(=O)NC1CSCC1OC(C)=O (stereo not given)	148	-43	98	i	1	-1	-1.6
CC(C)(C)NC(=O)NC(=O)COC(=O)CNC(=O)C1CCCCC1	99	57	110	i	0.87	0	.
COc1ccc(CNC(=O)CN(c2cc(C)cc(C)c2)S(=O)(=O)c2c(C)noc2C)cc1	105	.	.	i	1	-6	-2.8
O=S(=O)(NCc1cn2ccccc2n1)c1cccs1	101	.	.	i	0.93	.	.
O=C(Nc1cccc(F)c1)c1sc(Cl)nc1-c1ccccc1	106	11	97	i	0.89	-9	-1.5
Cc1ccc(S(=O)(=O)/N=C(/c2ccc(F)cc2)N2CCCC2)cc1	102	-21	90	i	1	0	.
CC(C)(C)c1ccc(Cn2nnc3c(=O)[nH]c(C4CCCN(C(=O)Cc5cccs5)C4)nc32)cc1 (stereo not given)	101	.	.	i	0.89	2	1.3
Cc1ccc(S(=O)(=O)N(C)c2ccc(N)cc2)cc1	99	-3	129	i	0.95	0	-0.5
Cc1cccc(NC(=O)CSc2cc(C)c(C#N)c3nc4ccccc4n23)c1	98	.	.	i	0.9	.	.
CCCCN=CC1=C(O)C(C(=O)OC)C(C)(C)CC1=O (stereo not given)	99	.	.	i	0.87	2	-1.5
CC1=C(C(=O)Nc2ccc(F)cc2)C(c2cccc(C)c2)n2nc(CCCO)nc2N1 (stereo not given)	102	-20	173	i	0.8	-11	-1.1
Cc1ccc(SCCC(=O)NC2CC2)cc1	103	14	119	i	1.2	-4	.
C=CCOc1c(Br)cc(CNc2ccc3[nH]c(=O)[nH]c3c2)cc1OCC	95	.	.	i	0.82	-1	.
CCOC(=O)c1sc2nc(C(C)C)c3c(c2c1N)CC(C)(C)OC3	88	-7	107	i	0.81	1	-0.9
O=C(NCc1ccco1)c1nc2ccccc2s1	100	-310	32	i	1.1	-3	-2.1
CC1(C(=O)N2CC3(CC(c4ccccc4)=NO3)C[C@H]2C(=O)NCC(N)=O)CC1 (stereo not given in full)	102	.	.	i	0.88	-4	-3.9
Cn1nc(C(F)(F)F)c(-c2ccccc2)c1NC(=O)c1ccco1	84	.	.	i	1.1	.	.
CNC(=O)N(c1ccccc1)c1ccccc1	105	7	137	i	1	-2	-2.6
O=C(Nc1ccccc1N1CCOCC1)c1cc(-c2ccco2)nc2ccccc12	107	-64	138	i	0.95	2	0.1
O=C(COC(=O)c1cc[n+]([O-])cc1)Nc1ccc(F)c([N+](=O)[O-])c1	100	13	72	i	0.84	-16	-0.8
O=C1CC(N2CCN(Cc3ccccc3)CC2)C(=O)N1 (stereo not given)	97	12	115	i	0.97	6	.
O=C(Nc1ccc(-c2cnco2)cc1)c1ccc(Cl)cc1	103	.	.	i	1.1	.	.
COc1ccc(S(=O)(=O)Nc2nnc(Cc3ccc(OC)c(OC)c3)s2)cc1	70	.	.	i	0.99	2	.
Cc1ccnc(NS(=O)(=O)c2cccc([N+](=O)[O-])c2)c1	97	.	.	i	1	.	.
COCCCn1c(SCC(=O)c2ccccc2)nc2ccccc2c1=O	105	-19	52	i	0.75	-2	.
CC1(C)CC(=O)C(C=NCCc2ccc(O)cc2)=C(O)C1	104	-18	120	i	1.1	-2	0.9
CN(C)CCn1c(=O)n(-c2cccc(Cl)c2)c(=O)c2c3c(sc21)CCCCC3	103	.	.	i	0.91	.	.
CCn1nnc(NC(=O)c2cccc(-c3cc4ccccc4oc3=O)c2)n1	105	-38	124	i	0.93	-5	-1.8

5 entries already listed, sorted by molecular weight, low to high.
SMILES	RGS16-Gao	INS promoter inh	INS promoter inh cell count	HSV augment	HSV augment primary fold	PKD1 kinase inh	GALR2 agonist
O=C1CC(N2CCN(Cc3ccccc3)CC2)C(=O)N1 (stereo not given)	97	12	115	i	0.97	6	.
Cc1ccnc(NS(=O)(=O)c2cccc([N+](=O)[O-])c2)c1	97	.	.	i	1	.	.
CCn1nnc(NC(=O)c2cccc(-c3cc4ccccc4oc3=O)c2)n1	105	-38	124	i	0.93	-5	-1.8
COCCCn1c(SCC(=O)c2ccccc2)nc2ccccc2c1=O	105	-19	52	i	0.75	-2	.
CN(C)CCn1c(=O)n(-c2cccc(Cl)c2)c(=O)c2c3c(sc21)CCCCC3	103	.	.	i	0.91	.	.

Look-ups from the results shown.
Value for CN(C)CCn1c(=O)n(-c2cccc(Cl)c2)c(=O)c2c3c(sc21)CCCCC3 in HSV augment primary fold: 0.91
Value for CCn1nnc(NC(=O)c2cccc(-c3cc4ccccc4oc3=O)c2)n1 in INS promoter inh: -38

(more compounds)
SMILES	RGS16-Gao	INS promoter inh	INS promoter inh cell count	HSV augment	HSV augment primary fold	PKD1 kinase inh	GALR2 agonist
CC(=O)C1CCC2C3CCC4=CC(=O)CC[C@]4(C)[C@@]3(F)C(O)C[C@]12C (stereo not given in full)	85	.	.	i	1.2	.	.
CC(=S)/C=C1\Sc2ccccc2N1C	92	.	.	i	0.87	-11	-4.4
N#CC1=C(SCc2ccccc2)NC(=O)CC1c1cccc(O)c1 (stereo not given)	109	.	.	i	0.99	-4	-2.8
COC(=O)c1cc(OC)c(OC)cc1NC(=O)c1cc(C)on1	.	i	60	.	.	3	-1.4
O=C(O)c1ccc(N2C(=O)C3C4c5ccccc5C(Br)(c5ccccc54)C3C2=O)cc1 (stereo not given)	104	.	.	i	1.1	-2	.
Cc1nnc(NC(=O)c2cccc(S(=O)(=O)N3CCOCC3)c2)s1	121	6	34	i	0.98	3	-1.4
Cn1cccc1/C=C1\SC(=O)N(c2ccccc2)C1=O	102	-21	133	i	1.2	-2	-0.7
COc1cc(NC(=O)Cn2nnc(-c3ccncc3)n2)cc(OC)c1	94	-4	102	i	1.2	1	-2.9
COc1ccc(NC(=S)NN2CCN(C)CC2)cc1OC	103	.	.	.	.	-9	-2.2
O=C(NC1CCN(Cc2ccccc2)CC1)C(NS(=O)(=O)c1cccc2nsnc12)c1ccccc1 (stereo not given)	100	.	.	i	0.87	0	.
C=C(C)c1cccc(C(C)(C)NC(=O)N2CC(C)OC(C)C2)c1 (stereo not given)	91	-11	83	i	1	-9	-0.7
O=C(CCS(=O)(=O)c1ccc(Cl)cc1)Nc1ccc(N2CCOCC2)cc1	99	.	.	i	1.2	.	.
CN1C(C(=O)NCc2cccc(Br)c2)CC2Cn3c(nc4cc5ccccc5cc43)C21 (stereo not given)	76	.	.	i	0.68	.	.
N#Cc1cccc(-c2cn(S(=O)(=O)c3ccc(Cl)cc3)nc2N)c1	103	14	219	i	0.86	1	0.4
O=[N+]([O-])c1ccc(OCCn2cnc3ccccc32)cc1	97	-112	77	i	0.96	1	.
COc1ccc(C(CCN)Cc2ccccc2)cc1 (stereo not given)	103	.	.	i	0.79	3	.
CCOC(=O)C1CCN(C(=O)C(C)N(c2ccc(Oc3ccccc3)cc2)S(C)(=O)=O)CC1 (stereo not given)	103	-50	69	i	0.99	-4	.
CCOc1ccc(C(=O)Nc2nc(C)cc(C)n2)cc1[N+](=O)[O-]	101	21	129	i	0.93	14	0.2
COc1ccc(OC)c2[nH]c(=O)c(CCNC(=O)Cc3cccs3)cc12	101	.	.	i	0.67	-7	.
CC(=O)N1CCc2cc(Br)cc(S(=O)(=O)NCC3CCCO3)c21 (stereo not given)	107	.	.	i	1	-8	-1.3
COc1ccc(NS(=O)(=O)c2ccc3oc(SC4CCOC4=O)nc3c2)cc1 (stereo not given)	96	4	89	i	0.86	-2	1.8
O=C1Cc2ccccc2N1c1c(Cl)cccc1Cl	88	0	121	i	0.86	-12	-3.4
O=C(CCCO)NC1Cc2ccccc2C1	104	.	.	i	1	.	.
O=C(Nc1ccc(N2CCN(C(=O)c3ccco3)CC2)c(Cl)c1)c1c(F)c(F)c(F)c(F)c1F	104	69	109	i	0.92	-1	-0.2
O=[N+]([O-])c1nn(-c2ccc3c(c2)OCCO3)n(O)c1=NCc1ccccc1Cl	98	.	.	i	1.2	23	-3.2
CC1CC(C)CN(S(=O)(=O)c2ccc(C(C)(C)C)cc2)C1 (stereo not given)	104	.	.	i	1.1	7	.
CCCOc1ccc(C(=O)Nc2ccc(N3CCN(C(C)=O)CC3)cc2)cc1	102	14	113	i	0.83	-6	-0.8
CCN(CC)C(=O)COc1cc(C)c(Cl)c(C)c1	99	19	79	i	0.97	-3	-1.1
COc1ccc(-c2nnc3n2N=C(C)CS3)cc1	98	9	116	i	1.3	-4	-1.2
COC(=O)Cn1c(C)c(C(C)=O)c(C(C)=O)c1C	102	-36	99	i	1.1	-2	0.9
COc1c(C)cc(Br)cc1C(=O)Nc1ccc(N2CCN(S(C)(=O)=O)CC2)cc1	95	-54	109	i	1	4	-3.2
COC(=O)c1ccc2c(c1)nc(C)n2CCO	101	11	121	i	0.96	-1	-1.5
CCOC(=O)c1sc(=NC(=O)c2ccc(OC)c(OC)c2)n(C)c1C	103	-31	109	i	0.99	-2	-0.1
Cc1cccc(Nc2ccccc2C(=O)OCC(=O)N2CCOCC2)c1C	99	0	87	i	1.2	-20	1.1
COCCSc1nnc(NS(=O)(=O)c2ccc(C)cc2)s1	107	40	103	i	0.9	-2	.
OC1(c2cccc(C(F)(F)F)c2)CCN(c2ccc(-c3ccccc3)nn2)CC1	101	18	164	i	0.92	-1	-0.4
CCc1ccc(N(C(=O)c2csnn2)C(C(=O)NC(C)(C)C)c2ccccn2)cc1 (stereo not given)	106	22	100	i	0.91	-5	.
C=CCOc1c(CNc2ccc(C(=O)O)cc2)cccc1OC	75	28	110	i	0.96	7	-1.1
O=c1cc(CO)occ1OCc1cccc(C(F)(F)F)c1	89	37	80	i	0.95	-5	-1.9
CCOc1ccccc1NC1=NC2CS(=O)(=O)CC2S1 (stereo not given)	102	.	.	i	0.94	.	.
CC1(C)CN=C(N(Cc2ccccc2)C(=O)Nc2ccccc2)S1	107	-14	106	i	1	-16	-1.5
O=C1CCCC(=O)C1=Cc1c[nH]c2ccccc12	99	40	85	i	1	0	-2.6
O=Cc1cn[nH]c1-c1ccccc1	100	.	.	i	0.79	3	.
CCN(CC)c1ccc(C2C(C(=O)Nc3ccccn3)=C(C)NC3=C2C(=O)CC(C)(C)C3)cc1 (stereo not given)	101	.	.	i	1	5	-0.4
OCCNc1nc2ccccc2n1-c1ncnc2sc3c(c12)CCC3	100	-57	57	.	.	3	-2.3
COc1cc(C(=O)O)ccc1OCc1c(C)noc1C	107	-8	205	i	0.88	5	-1.5
CCOC(=O)c1c(O)c2c([nH]c1=O)CCCC2	88	11	90	i	0.89	2	-2.3
Cc1ccc(-n2c(SCC(=O)Nc3nccs3)nc3c(c2=O)SCC3)cc1	100	.	.	.	.	4	-0.8
Cc1nn(-c2ccccc2)c2c1C(c1ccncc1)C(C#N)=C(N)O2 (stereo not given)	98	.	.	i	0.83	8	-0.9
CCC/C=C(\CCC)C(NS(=O)(=O)c1cccc2cccnc12)c1ccc(C(=O)OC)cc1 (stereo not given)	99	-40	108	i	0.71	-11	0.4

The list goes on.
SMILES	RGS16-Gao	INS promoter inh	INS promoter inh cell count	HSV augment	HSV augment primary fold	PKD1 kinase inh	GALR2 agonist
CCNC(=O)c1c(NC(=O)c2cc(-c3cc(C)ccc3O)n[nH]2)sc2c1CCCC2	101	-23	154	i	0.94	4	0.3
O=C1NC(=S)N(C(=O)c2ccc(F)cc2)/C1=C/c1cccnc1	101	.	.	i	1.2	.	.
Cc1ccc(OCC(=O)Nc2ccccc2-c2ccccc2NC(=O)COc2ccc(C)cc2)cc1	99	-3	143	i	1	-6	-1.4
Cc1cc(N2CCOCC2)n2cc(-c3ccc(F)cc3)nc2n1	109	.	.	i	1.1	-7	.
Cn1c(N)c(C(=O)COC(=O)C(Cc2ccccc2)NC(=O)c2ccccc2)c(=O)n(C)c1=O (stereo not given)	101	.	.	i	0.91	1	.
C=CCNC(=O)/C(C#N)=C\c1cc(Cl)c(OCC)c(OC)c1	102	-26	64	i	0.85	3	0.4
C/C(=N\NC(=O)c1c(-c2ccccc2Cl)noc1C)c1cccc(NC(=O)C(C)C)c1	38	-58	94	i	1.1	-1	-1.6
O=C(NCCCc1ccccc1)c1cc([N+](=O)[O-])ccc1Cl	111	.	.	i	0.68	-4	.
N#CC1=C(N)N2C(=C(C#N)C1c1cccc(Br)c1)Nc1ccccc12 (stereo not given)	101	.	.	i	0.89	7	0.0
COc1ccc(-c2cc(C(=O)O)c3sc(N4CCCCC4)nc3n2)cc1OC	119	54	80	i	1.1	1	-1.0
